Mtb H37Rv = M. tuberculosis H37Rv growth inhibitors, H37Rv strain (AID 1626); M. tuberculosis H37Rv growth inhibition; higher % means a stronger effect; inhibition, % at 10 µM, or IC50 in µM where a hit was titrated; hit rate 0.95% among 220,000;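 active = confirmed in a dose series; inconclusive = inhibition above 80% but not taken into the dose series; inactive = below 80% or under 30% at every dose of the series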;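 also: bacteria incubated seven days before Alamar blue readout; 0% = bacteria only wells and 100% = bacteria with antibiotic wells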
YopH PTP inh = inhibitors of Yersinia enterocolitica YopH tyrosine phosphatase; fluorescence Ex485/Em525; inhibition, %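 (about 10 µM by stock and volumes)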; hit rate 0.16% among 140,000; AID 898;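 active = inhibition of 50% or more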;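 also: controls were vehicle for no effect and minimum signal wells for full effect; inactives centre near -20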
Arbovirus inh = arbovirus infection inhibition; arbovirus infection cell-based antiviral screen; hit rate 0.37% among 200,000; inhibition, % at 10 µM;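 active = inhibition from about 30%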;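 also: bluetongue infection of BSR cells; cell survival read as ATP light after 72 h; 0% = infected wells without compound and 100% = uninfected wells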
Mtb betalactam = beta-lactam sensitization of Mtb H37Rv. inhibition, % at 25 µM. M. tuberculosis H37Rv growth with meropenem, percent inhibition; hits of this screen are not shown here. hit rate 0.27% among 330,000. AID 434955;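 active = about 74% or more and at least 40 points above the plate without the antibiotic, then above 30% in a dose series; inconclusive = first-round hits that could not be retested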;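 also: growth measured after seven days incubation then overnight dye step; 0% = bacteria only wells and 100% = bacteria with antibiotic; twin plates without the antibiotic show which effects depend on it; some results filed as inactive read as strong as hits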
RecA intein inh = Mtb RecA intein splicing inhibition. P9WHJ3. cell-free RecA intein splicing, fluorescence. inhibition, %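 (about 9 µM by stock and volumes)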. hit rate 0.75% among 290,000; in the data active = inhibition above about 30%; inconclusive = no clear call, values can overlap the other calls;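 also: 0% = vehicle wells and 100% = reference inhibitor control wells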
Target sequence (P9WHJ3 whole entry, looked up): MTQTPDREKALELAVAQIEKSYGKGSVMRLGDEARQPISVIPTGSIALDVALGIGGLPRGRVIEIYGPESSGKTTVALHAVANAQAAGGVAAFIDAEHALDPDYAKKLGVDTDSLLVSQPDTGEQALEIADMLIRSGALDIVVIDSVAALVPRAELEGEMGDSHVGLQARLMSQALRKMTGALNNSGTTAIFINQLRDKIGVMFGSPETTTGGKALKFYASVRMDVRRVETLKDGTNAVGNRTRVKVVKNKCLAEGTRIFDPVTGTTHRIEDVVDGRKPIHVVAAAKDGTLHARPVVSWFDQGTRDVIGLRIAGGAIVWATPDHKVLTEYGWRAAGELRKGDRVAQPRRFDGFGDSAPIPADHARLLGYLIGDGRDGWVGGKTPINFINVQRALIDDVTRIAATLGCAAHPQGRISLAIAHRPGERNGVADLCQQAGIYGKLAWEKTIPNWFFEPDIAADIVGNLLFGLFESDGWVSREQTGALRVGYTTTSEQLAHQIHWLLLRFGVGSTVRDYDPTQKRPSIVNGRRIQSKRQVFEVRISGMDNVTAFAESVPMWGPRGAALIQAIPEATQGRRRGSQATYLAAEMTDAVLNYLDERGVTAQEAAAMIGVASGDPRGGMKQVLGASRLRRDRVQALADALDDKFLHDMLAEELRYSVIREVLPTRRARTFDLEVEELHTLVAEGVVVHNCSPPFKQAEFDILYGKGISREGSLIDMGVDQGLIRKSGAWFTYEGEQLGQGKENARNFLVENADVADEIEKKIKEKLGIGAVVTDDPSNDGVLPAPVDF
Arbovirus inh repeat = second read-out of Arbovirus inh, no call of its own (marks repeat the call); inhibition, %; measured here: 10K subset replicate screen; many hits read low in the repeat;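 first of two repeat runs on a subset; 0% = infected and 100% = uninfected wells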
* marks the source's active call; other numbers are inactive results; ? = inconclusive; / = not tested or not shown; & = joins results of further samples. This is a subset (hit frequency here may not be typical).

SMILES	Mtb H37Rv	YopH PTP inh	Arbovirus inh	Mtb betalactam	RecA intein inh	others
O=C(CC1C(=O)NCCN1Cc1ccc(-c2ccccc2)cc1)NCCCn1cccn1 (stereo not drawn)	1%	/	5	5	6.5
c1cc(Nc2ncnc3sccc23)cc(-c2nnc3n2CCCCC3)c1	0%	-35	5	?	/
COc1ccccc1N1CCN(CC(=O)N2N=CCC2c2ccccc2)CC1 (stereo not drawn)	6%	-30	15	8	-1.2
CCOC(=O)C1CCCN(C2CC(=O)N(c3ccccc3)C2=O)C1 (stereo not drawn)	-4%	/	0	1	0.7
CC(C)CNC(=O)c1cccc2c1-c1ccccc1C2=O	/	/	/	6	-3.6
Cc1ccc(-c2ccc(/C=N/NC(=O)CN3CCCC3)o2)cc1Cl	?	-25	-7	98	0.8
CSc1nc(Cl)cc(N(CCO)CCO)n1	-1%	-20	5	-2	-1.1
CNC(=O)c1[nH]cnc1C(=O)Nc1cccc(OC)c1	-3%	-28	4	63	1.6
Cc1sc2ncn(CC(=O)NCCCC(=O)N(C)Cc3ccccc3)c(=O)c2c1C	/	/	/	0	-2.3
O=C(Cn1cnc(S(=O)(=O)N2CCCCC2)c1)NCc1ccco1	/	/	/	-3	0.0
COc1cc(SC)ccc1C(=O)N(C)Cc1ccccc1	-3%	-11	-3	-7	2.0
CCCC(=O)NC(c1ccc(N(C)C)cc1)c1ccc2cccnc2c1O (stereo not drawn)	/	/	/	8	7.5
CC(=O)c1cccc(NC(=O)COC(=O)C2=COCCO2)c1	2%	/	9	25	1.0
CCOC(=O)CSc1nc2cc(C)ccc2cc1C#N	1%	-28	-5	-5	-0.3
Cc1ccc(N2CC(C(=O)OCc3nc(N)nc(Nc4ccccc4C)n3)CC2=O)cc1 (stereo not drawn)	/	/	/	-1	-1.1
COc1ccc(NCc2ccc3c(c2)OCO3)cc1Cl	?	-11	-8	99	6.2
CN(C)c1oc(-c2ccccc2Cl)nc1S(=O)(=O)c1ccccc1	13%	-10	-3	-5	-0.9	Arbovirus inh repeat=-3
O=C(c1ccc(Cl)cc1)c1oc2ccccc2c1CS(=O)(=O)c1ccccc1	-1%	-18	4	66	3.2
O=C(CSc1ncnc2[nH]ncc12)Nc1nc(-c2ccc(F)c(F)c2)cs1	5%	/	-20	0	-0.3
C/C(Cc1ccccc1)=N/NC(=O)CNC(=O)C(c1ccccc1)c1ccccc1	-2%	/	/	1	-0.9
CCOC(=O)c1ccc2c(c1)nc(SCC(=O)c1ccco1)n2CC	8%	-43	-1	-2	-1.0
Cc1cc(C)n2nc(SCN3C(=O)c4ccccc4C3=O)nc2n1	4%	-33	1	-3	1.6
COc1ccc(CCC(C)N2CCC(CO)(Cc3ccccc3)CC2)cc1 (stereo not drawn)	/	/	/	-11	1.8
COc1ccc(O)c(CN2CCN(CCc3ccccc3)C(CCO)C2)c1 (stereo not drawn)	-6%	/	6	-6	-1.1
CCCOc1ccccc1/C=C(\C#N)C(=O)Nc1cccc(C)n1	/	/	/	3	0.8
COc1ccc(-c2nc(CS(=O)(=O)CC(=O)NCc3ccc4c(c3)OCO4)c(C)o2)cc1	/	/	/	7	1.5
COc1ccc(C(=O)N=C2SC3CS(=O)(=O)CC3N2Cc2ccc(F)cc2)cc1 (stereo not drawn)	/	/	/	3	-0.1
CCOC(=O)c1ccc(S(=O)(=O)NCC(c2ccc(N(C)C)cc2)c2c[nH]c3ccccc23)cc1 (stereo not drawn)	13%	-28	-11	4	-0.3
Cc1nn(CCC(=O)O)c2nc(-c3cccnc3)cc(C(F)(F)F)c12	-4%	-38	1	3	-0.2
COc1cc(/C=C/C(=O)OCC(=O)NCCc2ccccc2)cc(OC)c1OC	3%	/	4	-5	-0.5
CN1CCCN(C(=O)COc2ccccc2Br)CC1	/	/	/	-1	0.6
CC(=O)Nc1ccc(S(=O)(=O)n2cnc3ccccc32)cc1	-7%	-26	14	-2	-2.8
CCCCNC(=O)c1ccc2c(c1)N(C)C(=O)c1ccccc1S2	/	/	/	-3	3.2
Cc1ccc(C)c(OCCC(=O)OCC(=O)NCc2ccccc2)c1	/	/	/	3	-0.2
Cc1cc(C)n(Cc2ccc(Cl)nc2)n1	-2%	/	10	-6	-1.0
O=C(NCCCc1ccc(F)cc1)C1CCC(=O)N(CCCN2CCCC2=O)C1 (stereo not drawn)	/	/	/	3	-0.2
CCOc1ccccc1N1CC(O)=C(c2nc3ccccc3s2)C1=N	8%	-18	-3	12	0.8
O=c1[nH]sc2ccccc12	0%	/	-19	/	-2.5
CN1C(=O)/C(=N/OC(=O)c2ccccc2)c2ccccc21	-5%	-41	2	-11	16
CCn1c(SCC(=O)NCc2ccccc2)nnc1C(CO)NC(=O)c1ccccc1 (stereo not drawn)	/	/	/	-18	-4.6
CCn1c(SCC(=O)Nc2sc3c(c2C#N)CCCC3)nnc1-c1ccncc1	-3%	-29	-2	60	3.7
CCCCCCNC(=O)C(=O)NCCc1ccc(Cl)cc1	-2%	/	-8	-9	1.1
O=C(CNC(=S)N(Cc1ccccc1)Cc1cccnc1)NCCN1CCOCC1	-1%	/	13	1	-4.8
CC1=CC(C)C(/C=N/n2cnnc2)C(C)C1 (stereo not drawn)	-7%	-19	1	-7	1.6
COc1ccc(S(=O)(=O)NNC(=O)c2csc(-n3nc(C)cc3C(F)(F)F)n2)cc1OC	0%	3	6	-10	1.3
COC(=O)c1ccc(C)c(N(CCO)CCO)c1	-3%	1	-1	5	-0.4
CCOc1ccc(NC(=S)Nc2cccnc2)cc1	?	/	6	/	-0.1
Clc1ccc(OCc2nnc3n2CCCCC3)c(Cl)c1	4%	/	/	-9	-0.3
COc1ccc2[nH]cc(C(=O)CN3CCN(C4CCCCC4)CC3)c2c1	-5%	-31	2	-8	-2.6
COC(=O)c1sccc1NC(=S)N1CCN(C)CC1	2%	/	4	0	0.2
CCCCn1c(=O)c(C(=O)NCc2ccco2)c(O)c2ccccc21	5%	/	1	-1	-1.4
Cc1nc(NNC(=O)c2ccccc2)cc(-c2ccccc2)n1	-4%	-22	-8	6	0.6
O=C(CCCOc1ccccc1)N1CCN(c2ccccc2)CC1	3%	-1	3	34	1.3
CC(=O)NCC(=O)OCC(=O)c1ccccc1	3%	9	20	6	2.4
O=C(CSc1cccs1)Nc1ccc2ccccc2c1	?	-50	9	92	6.6
CCN(CC(=O)NCc1ccc(F)cc1)c1ccc(S(C)(=O)=O)cc1[N+](=O)[O-]	6%	/	-2	-3	5.4
O=C(Nc1cc(N2CCOCC2)ncn1)NC1(C(F)(F)F)Oc2ccc(Cl)cc2O1 (stereo not drawn)	16%	-49	-4	99	-0.1
Cc1ccc2c(c1)c(C)c(C)n2CC(O)Cn1nc(C)cc1C (stereo not drawn)	-9%	-29	9	2	/	Arbovirus inh repeat=0
Cc1cc(C)cc(NC(=O)/C(C#N)=C/c2cn(CC(=O)NCc3ccco3)c3ccccc23)c1	6%	5	-9	18	-1.6
O=C(Nc1cccnc1)c1ccc(COCC(F)(F)F)cc1	-7%	29	-4	-3	2.6

Fetched by structure from the list above:
SMILES	Mtb H37Rv	YopH PTP inh	Arbovirus inh	Mtb betalactam	RecA intein inh	others
Cc1cc(C)n(Cc2ccc(Cl)nc2)n1	-2%	/	10	-6	-1.0
CCOC(=O)C1CCCN(C2CC(=O)N(c3ccccc3)C2=O)C1 (stereo not drawn)	-4%	/	0	1	0.7
O=C(CCCOc1ccccc1)N1CCN(c2ccccc2)CC1	3%	-1	3	34	1.3

Going on with the list.
SMILES	Mtb H37Rv	YopH PTP inh	Arbovirus inh	Mtb betalactam	RecA intein inh	others
O=C(CSc1nnc(Cc2ccccc2)n1Cc1ccccc1)NCc1ccco1	4%	-11	-1	-4	1.5
COc1ccc(S(=O)(=O)Nc2ccc(O)c3ccccc23)cc1	3%	-15	-35	30	96*
C/C(=N\Nc1nc(C)cc(-c2ccccc2)n1)c1ccccc1	/	/	/	8	-2.2
N#CC1(NC(=O)COC(=O)CSc2ccc(F)cc2)CCCCC1	/	/	/	-1	-6.0
Cc1ccc(C)c(S(=O)(=O)NCc2ccc(C(=O)N3CCN(C)CC3)cc2)c1	0%	-13	0	-6	0.6
CCCN1C2CCCC1CC(NC(=O)c1cccc(Cl)c1)C2 (stereo not drawn)	/	/	/	-2	-0.4
CCOC(=O)N1CCC(NC(=O)CN(c2ccc(C(C)C)cc2)S(=O)(=O)c2c(C)nn(C)c2C)CC1	/	/	/	3	-0.5
Cc1cc(C)c(C)c(OCC(=O)N2CCN(c3ccccn3)CC2)c1	/	/	/	1	0.4
CCOC(=O)c1cc2c(=O)n3ccccc3nc2n(Cc2ccco2)c1=NC(=O)c1ccccc1OCC	3%	/	3	7	-96
O=C(c1ccc(Br)o1)N1CCC(c2nc3ccccc3[nH]2)CC1	/	/	/	-4	0.9
CCOc1ccc(OCC(=O)Nc2ccc(OC)cc2[N+](=O)[O-])cc1	6%	/	2	0	-7.4
CC(C)CCN(C(=S)Nc1cccc(C(F)(F)F)c1)C(C)c1ccccn1 (stereo not drawn)	-3%	/	/	-9	0.6
CCOc1cccc2sc(N(CCN(C)C)C(=O)c3ccc(Br)s3)nc12	8%	/	3	5	-0.2
Cc1ccc(C(C)C)cc1OCC(=O)Nc1ccc(N2CCCCC2)cc1	/	/	/	-8	-1.0
Cc1ccccc1NC(=O)COC(=O)c1cccnc1	1%	/	6	-8	-0.8
Cc1ccc(-n2nc(C(=O)N3CCOCC3)cc2-c2ccc(Cl)cc2)cc1	-7%	-17	-12	12	6.7
CC(O)c1ccc(-n2cnnn2)cc1 (stereo not drawn)	-1%	-26	-3	2	-0.9
Cc1cc(C(C)(C)C)ccc1OCC(=O)N/N=C\c1c(C)n(C)n(-c2ccccc2)c1=O	/	/	/	4	0.8
COc1ccc(-c2nc(SC(CC(=O)NCCN3CCOCC3)c3cccs3)n[nH]2)cc1 (stereo not drawn)	0%	/	-3	3	-3.5
COCCn1c(SCC(=O)Nc2cccc(C(=O)OC)c2)nc2ccccc2c1=O	-12%	-23	4	2	0.5

Ordered by length of the SMILES (low to high): six of the compounds above.
SMILES	Mtb H37Rv	YopH PTP inh	Arbovirus inh	Mtb betalactam	RecA intein inh	others
CCCN1C2CCCC1CC(NC(=O)c1cccc(Cl)c1)C2 (stereo not drawn)	/	/	/	-2	-0.4
CC(=O)c1cccc(NC(=O)COC(=O)C2=COCCO2)c1	2%	/	9	25	1.0
CCOc1ccccc1N1CC(O)=C(c2nc3ccccc3s2)C1=N	8%	-18	-3	12	0.8
COc1ccc2[nH]cc(C(=O)CN3CCN(C4CCCCC4)CC3)c2c1	-5%	-31	2	-8	-2.6
COCCn1c(SCC(=O)Nc2cccc(C(=O)OC)c2)nc2ccccc2c1=O	-12%	-23	4	2	0.5
Cc1ccc(C)c(S(=O)(=O)NCc2ccc(C(=O)N3CCN(C)CC3)cc2)c1	0%	-13	0	-6	0.6

Continued:
SMILES	Mtb H37Rv	YopH PTP inh	Arbovirus inh	Mtb betalactam	RecA intein inh	others
CC1(C)S[C@@H]2[C@H](NC(=O)[C@H](N)c3ccccc3)C(=O)N2[C@H]1C(=O)O	5%&-8%	-2&-29	4&25	-6&1	-2.1&1.1
Cc1coc2c1c(C)cc1oc(=O)c(Cc3ccccc3)c(C)c12	4%	-11	-6	22	0.7
CCOCCCNC(=O)NC12CC3CC(CC(C3)C1)C2	-3%	-38	8	-5	-0.6
CC(C)c1cc(NCc2ccccn2)n2c(nc3ccccc32)c1C#N	1%	/	2	-1	-19
COc1ccc2nc(NC3=NC(C(=O)Nc4ccc(C)cc4)CC(=O)N3)nc(C)c2c1 (stereo not drawn)	-2%	-1	5	-2	0.5
c1ccc2nc(-c3ccc(N4CCOCC4)cc3)ccc2c1	-4%	-28	-9	10	-7.6
CCSC1=C(C#N)C2(CCCCC2)C(C#N)=C(N)N1	-10%	-25	1	13	0.6
CN(C)c1ccnc2sc(C(=O)c3ccccc3)c(N)c12	4%	9	-15	14	-10
Cc1ccc(CNC(=O)CCC2CCCN(Cc3ccc4cccc(F)c4n3)C2)o1 (stereo not drawn)	12%	/	-3	-3	/
COC(=O)CNC(=O)c1ccc(C)s1	0%	-5	5	-6	-0.8
CC(C)c1ccc(NC(=O)CN2C(=O)COc3ccc(S(=O)(=O)N4CCOCC4)cc32)cc1	/	/	/	5	-2.4
CC(C)=C1C2CCC1C1C(=O)N(c3ccc4c(c3)OCO4)C(=O)C21 (stereo not drawn)	6%	-4	-3	2	-1.3
Cn1nc([N+](=O)[O-])c2c(-c3nc4ccccc4s3)c(N)n(C3CCCCC3)c2c1=O	-5%	-29	-15	-17	-0.3
O=C(CCc1nc2ccccc2[nH]c1=O)OCC(=O)c1cccc2ccccc12	-8%	-17	5	/	/
Cc1ccc([N+](=O)[O-])cc1-c1ccc(/C=N/NC(=O)CN2CCOCC2)o1	2%	/	/	38	0.2
CCCCCCCSc1cc(OC)c(CCNC)cc1OC	67%	-1	-36	30	6.9
